Screening results (PubChem BioAssay)
gsp antag: antagonists of gsp mutant (McCune-Albright syndrome). Potency, µM (highest dose often 76.9 µM), without a hit: at the top dose activity change, negative = inhibition, most hits filed as inhibitors. hit rate 0.4% among 340,000. AID 624288. gsp-mutant cells, cAMP HTRF, 30 min; control for the full effect not named in the record; active = falling curve of any shape with a large fitted effect; inconclusive = falling curve, mostly with a smaller effect; inactive = flat or rising curve; cell line not stated here;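 further: intracellular cAMP measured with PDE inhibitor Ro 20-1724 present during compound exposure; potency means the concentration at half of the fitted maximal effect; on the % scale 0 is the no-effect control and ±100 the full control effect; nearly all actives have a fitted effect of over 65% in size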
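G418-selected cells were plated in DMEM/10% FBS for 16-24 h at 37C, then treated with compounds plus the PDE inhibitor […] (300 uM solution added) for 30 min at 37C. Intracellular cAMP was measured by HTRF after 30 min lysis at room temperature.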
D2 agonist: activates the human D2 dopamine receptor; P14416; DiscoveRx PathHunter D2 beta-arrestin, luminescence, 90 min; 100% = 57 uM dopamine signal; activation, % (test concentration not listed); hit rate 0.084% among 360,000; AID 624465; in the data active = activation above about 40%; inconclusive = about 15% to 40%; inactive = below about 15%; further: compound concentration not given in the record; the text of the record calls up to 30% inactive
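Agonist mode: compounds alone added to overnight-plated D2 PathHunter cells for 90 min at 37 C, with 57 uM final dopamine (EC100) defining full response. Beta-arrestin recruitment detected by chemiluminescent reagent, read after 1 h at ambient temperature.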
CtBP-E1A blk: inhibitors of CtBP/E1A interaction | AlphaScreen GST-E1A/His-CtBP binding, 1536-well; stronger effect = lower value; control for the full effect not named in the record | hit rate 0.49% among 340,000 | activity change, % (no concentration beside the values); in the data active means activity change below about -65%; inconclusive means about -30% to -65%; inactive means above about -30%; further: on the % scale 0 is the no-effect control and ±100 the full control effect; compound concentration not given in the record
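Steps: dispense buffer (Tris pH 8.0, NaCl 300 mM, TCEP 1 mM, BSA, Tween 20); add 5X protein mix (GST-E1A, His-CtBP, 125 nM each); pin 23 nL compound; 2 h at 37 °C, dark; add 5X beads (50 ug/mL); 1 h; read.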
D2 PAM: human D2 receptor positive allosteric modulation | P14416 | DiscoveRx D2 beta-arrestin cells, luminescence, 90 min; 100% = 57 uM dopamine signal | potentiation, % (concentration not given with the values) | hit rate 0.23% among 360,000; active = potentiation of 50% or more; inconclusive = 30% to 50%; inactive = 30% or less;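 further: compound concentration not given in the record; tested on top of an EC20 dose of dopamine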
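PathHunter beta-arrestin assay in DiscoveRx D2 cells. Compounds were added with an EC20 of dopamine (50 nM final) for 90 min at 37 deg C. Luminescence was read 1 h after detection reagent, with 57 uM dopamine as the EC100 control.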
gsp agonist: gsp mutant agonism; gsp mutant cells, cAMP HTRF, 30 min; control for the full effect not named in the record; Potency, µM (highest dose often 76.9 µM), for inactives: top-dose activation (cAMP increase), actives largely listed as activators; hit rate 0.13% among 340,000; active = well fitted activation curve with a large enough effect; inconclusive = small, poorly fitted or top-dose-only effect, or another doubt; inactive = no such curve, though single readings can be large or run the other way; cell line not stated here;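 further: phosphodiesterase inhibitor Ro 20-1724 added with compounds to block cAMP breakdown; potency means the concentration at half of the fitted maximal effect; nearly all actives have a fitted effect of over 60% in size; about a fifth of the inactives were tested at one dose only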
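Cells stably selected in G418 were plated at 2000/well, grown 16-24 hr, then given compounds in DMSO with the PDE inhibitor […] (300 uM solution added) for 30 min at 37C; cAMP was read by HTRF.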
Six1-Eya2 blk: blocks human Six1 binding to Eya2; Q15475+O00167; activity change, % (concentration not given with the values); hit rate 0.56% among 360,000; AlphaScreen GST-Six1/His-Eya2 binding, biochemical; stronger effect = lower value; control for the full effect not named in the record; in the data active = activity change below about -65%; inconclusive = about -30% to -65%; inactive = above about -30%; further: on the % scale 0 is the no-effect control and ±100 the full control effect
Target sequence (O00167 whole entry, looked up): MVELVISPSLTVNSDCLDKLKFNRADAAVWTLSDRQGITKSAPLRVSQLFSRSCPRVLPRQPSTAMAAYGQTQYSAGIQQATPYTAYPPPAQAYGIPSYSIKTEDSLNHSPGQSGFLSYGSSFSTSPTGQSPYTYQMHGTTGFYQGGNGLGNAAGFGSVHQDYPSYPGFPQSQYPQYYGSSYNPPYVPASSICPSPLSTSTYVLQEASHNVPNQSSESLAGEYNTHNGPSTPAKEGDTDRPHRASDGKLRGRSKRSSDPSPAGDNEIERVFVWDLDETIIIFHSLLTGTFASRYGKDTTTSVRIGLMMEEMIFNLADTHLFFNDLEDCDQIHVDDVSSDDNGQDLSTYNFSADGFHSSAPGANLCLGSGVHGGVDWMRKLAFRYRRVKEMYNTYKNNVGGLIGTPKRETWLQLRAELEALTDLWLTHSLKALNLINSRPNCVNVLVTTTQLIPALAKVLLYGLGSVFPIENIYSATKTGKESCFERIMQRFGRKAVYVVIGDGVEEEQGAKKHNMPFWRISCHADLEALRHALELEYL
Target sequence (Q15475 whole entry, looked up): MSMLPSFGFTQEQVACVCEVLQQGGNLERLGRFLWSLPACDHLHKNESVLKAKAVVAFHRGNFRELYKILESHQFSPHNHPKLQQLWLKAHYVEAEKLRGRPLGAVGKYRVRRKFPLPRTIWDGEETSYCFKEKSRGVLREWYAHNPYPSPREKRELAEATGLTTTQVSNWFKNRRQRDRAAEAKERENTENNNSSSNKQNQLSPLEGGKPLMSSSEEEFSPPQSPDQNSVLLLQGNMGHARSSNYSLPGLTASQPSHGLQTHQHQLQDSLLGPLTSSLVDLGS
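Six1/Eya2 binding was read as AlphaScreen signal after compounds were pinned into GST-Six1 plus His-tagged Eya2 (5X stock 250/500 nM) in pH 8.0 Tris/NaCl/TCEP buffer, beads added, then incubated 1 h, 37 C, dark.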
An asterisk follows results filed as active; ? = inconclusive; nt = not tested or not shown; [ ] = remark or other dose.

entry	Molecule	gsp antag	D2 agonist	CtBP-E1A blk	D2 PAM	gsp agonist	Six1-Eya2 blk
1	Cc1ccc(NC2CCCN(C(=O)c3c(C)noc3C)C2)cc1C (configuration not stated)	-0.7%	-2.7	9.7	-10.2	-7.2%	-0.5
2	COc1cc(OC)c(OC)cc1CNC(=O)c1ccc(S(=O)(=O)N2CCCCC2)cc1	0.3%	2.3	-14.0	0.3	-41.0%	-3.2
3	Cc1c(Cl)cccc1Nc1nc(N)nc(CSC(=S)N2CCOCC2)n1	2.2%	-2.7	-3.8	-10.5	-2.0%[15.4 µM]	-8.2
4	CCCc1cc(C(=O)NCCc2ccccc2)no1	7.2%	-4.0	-1.3	-8.2	-24.0%	-0.3
5	CCOC(=O)CCCC(=O)N1CCOCCOCCN(C(=O)CCCC(=O)OCC)CCOCCOCC1	6.2%	-2.4	-9.2	-12.2	-6.9%	3.8
6	O=C(NCc1ccccc1)NC1(C(=O)N2CCOCC2)CCCCC1	-1.7%	-1.1	4.5	-18.6	-10.4%	5.4
7	Cc1ccc(-n2ncc3c2CCCC3NC(=O)c2ccoc2)cc1C (configuration not stated)	-29.6%	-3.1	-2.2	1.6	-23.1%	-5.2
8	FC(F)(F)c1nnc(-c2ccccc2)nc1Oc1ccccc1	0.0%	-1.3	15.2	-9.3	17.9%	-2.6
9	CCc1cccc(C)c1NC(=O)CSc1ncn[nH]1	-16.4%	2.9	-1.3	1.4	11.9%	9.3
10	Cc1ccc(C)c(NC(=O)Cn2cnc3c(oc4ccccc43)c2=O)c1	-22.7%	-6.0	-8.1	5.1	-10.7%[15.4 µM]	5.5
11	O=S(=O)(N1CCOCC1)N1CCOCC1	-3.1%	0.6	12.2	-3.8	-20.0%	-3.0
12	COc1ccc(-c2c(NC(=O)c3ccco3)oc3ccccc3c2=O)cc1	6.9%	-0.6	-1.5	-10.7	-4.4%	0.0

Arranged by value in CtBP-E1A blk (largest number first): 3 of the compounds above.
| nr | molecule | gsp antag | D2 agonist | CtBP-E1A blk | D2 PAM | gsp agonist | Six1-Eya2 blk |
| --- | --- | --- | --- | --- | --- | --- | --- |
| 8 | FC(F)(F)c1nnc(-c2ccccc2)nc1Oc1ccccc1 | 0.0% | -1.3 | 15.2 | -9.3 | 17.9% | -2.6 |
| 7 | Cc1ccc(-n2ncc3c2CCCC3NC(=O)c2ccoc2)cc1C (configuration not stated) | -29.6% | -3.1 | -2.2 | 1.6 | -23.1% | -5.2 |
| 10 | Cc1ccc(C)c(NC(=O)Cn2cnc3c(oc4ccccc43)c2=O)c1 | -22.7% | -6.0 | -8.1 | 5.1 | -10.7%[15.4 µM] | 5.5 |

(further entries)
entry	Molecule	gsp antag	D2 agonist	CtBP-E1A blk	D2 PAM	gsp agonist	Six1-Eya2 blk
13	CSCCC(NC(=O)c1ccccc1Cl)C(=O)Nc1cccc(S(=O)(=O)N2CCCC2)c1 (configuration not stated)	3.5%	-6.1	1.4	-24.0	-5.3%	-18.1
14	O=C(COC(=O)CNC(=O)c1ccccc1F)NCC(F)(F)F	-10.2%	9.7	nt	-1.6	9.8%	1.2
15	CCOC(=O)/C(C#N)=C/c1c(N2CCN(c3cccc(Cl)c3)CC2)nc2c(C)cccn2c1=O	2.4%	2.3	-10.0	-9.0	?	-8.0
16	CCn1nc(C)c(Br)c1Nc1ccc(Br)cc1	nt	-3.3	0.0	-15.3	19.2%[15.4 µM]	3.3
17	COc1ccccc1N1CCN(C/C(C)=C/c2ccccc2)CC1	-0.5%	-1.6	2.6	-17.7	-14.8%	-3.3
18	CC(=O)NC1CC2CCCC(C1)N2S(=O)(=O)c1cccc(F)c1 (configuration not stated)	10.1%	-1.4	19.2	-10.0	-4.5%	28.4
19	COCCN(C(=O)CSc1n[nH]c(-c2ccc(OC)cc2)n1)c1c(N)n(Cc2ccccc2)c(=O)[nH]c1=O	0.8%	0.0	1.0	-11.6	?	5.8
20	Cc1nc(N)sc1C(=O)OCC(C)C	12.5%	-4.1	-0.5	-6.0	-26.6%	-4.3
21	CN(Cc1ccccc1)C(=O)c1[nH]cnc1C(=O)NCc1ccccc1	6.4%	1.0	3.0	-5.7	nt	5.1
22	CCc1ccc(C(=O)COC(=O)CNC(=O)CNC(=O)Cc2ccccc2)cc1	-23.1%	-2.7	10.2	2.0	-35.3%[inhibitor]	2.3
23	O=C(NOCc1ccccc1)c1ccc(Cl)cc1	8.2%	0.6	-0.7	-3.1	22.3%	6.8
24	ClC1(Cl)CC1CSc1nc2ccccc2[nH]1 (configuration not stated)	7.6%	0.2	11.2	-6.9	1.3%[15.4 µM]	-3.1
25	CC(C)c1nc(N2CCN(C(=O)c3ccco3)CC2)c2c3c(sc2n1)CCCC3	-15.3%	1.1	-5.8	-4.7	6.3%	-17.9
26	O=C(NC1CCCC1)C(c1ccccc1)N(C(=O)c1ccno1)c1ccccc1 (configuration not stated)	0.8%	-7.9	-4.3	19.4	0.0%	-1.8
27	CCOc1ncccc1C(=O)NCc1ccc(OC)cc1	13.2%	-1.2	5.3	-11.0	40.4%	-1.7
28	Cc1ccccc1NC(=S)NC(NC(=O)c1ccccc1C)C(Cl)(Cl)Cl (configuration not stated)	-10.2%	-2.6	7.1	-7.9	-20.9%	-2.1
29	Cc1ccc(Cl)cc1NC(=O)c1cnn2c1NC(c1ccco1)CC2C(F)(F)F (configuration not stated)	-21.3%	1.3	2.3	1.1	7.4%	-7.7
30	Cc1c(Cl)ccc2c(C(=O)NCCN3CCCCC3)cc(-c3ccccn3)nc12	11.5%	-1.5	-1.0	-13.0	3.8%[15.4 µM]	2.1
31	COc1ccc(C(=O)Nc2nc3ccccc3[nH]2)cc1S(=O)(=O)N1CCCC1	1.3%	0.2	-70.3*	-3.3	-5.9%	?
32	O=C(COc1ccc(/C=N/NC(=O)c2ccccc2O)cc1)Nc1ccc([N+](=O)[O-])cc1	4.0%	-2.4	-2.8	7.3	-3.1%	0.4
33	Cc1onc(-c2ccccc2Cl)c1C(=O)OCc1nnc(-c2ccccc2)o1	?	-5.8	1.2	-16.8	-68.9%[inhibitor]	-6.8
34	O=C(O)c1cccc(NS(=O)(=O)c2cccc3nsnc23)c1	0.3%	-2.2	41.2	-1.8	-21.4%	25.2
35	COc1ccc(OC)c(-c2cc(C(F)(F)F)c3c(n2)sc2c(O)cc(=O)[nH]c23)c1	-0.5%	-0.2	2.1	14.3	1.3%	-0.6
36	O=C1CCCc2cc3c(ccc4ccccc43)cc21	?	3.5	13.0	-7.2	14.1%	5.5
37	O=C(COc1ccccc1Cl)N1CCN(c2ccc(F)cc2)CC1	-6.6%	-3.5	-0.5	-23.9	0.0%	-3.4
38	CC(C)CCNC(=O)c1ccc2c(c1)ncn2C1CCCC1	7.94µM*	-4.2	-10.8	-7.5	-2.4%[15.4 µM]	1.7
39	Cc1ccc(C)c(NC(=S)NCc2ccc3c(c2)OCO3)c1	8.4%	1.2	-9.1	-4.1	0.6%	-6.2
40	C/C(=N\NC(N)=O)c1cccc(Cl)c1	-2.9%	0.6	18.8	-11.7	-9.8%	7.0
41	CCCC1C2C(=O)N(c3ccccc3OCC)C(=O)C2ON1c1ccccc1 (configuration not stated)	-21.6%	-3.0	-10.9	10.5	8.7%	-18.6
42	NNC(=O)c1ccc(Cn2cc(Cl)cn2)o1	-3.4%	0.4	-1.6	2.2	-8.2%	-0.1
43	NC(=O)c1noc(C(=O)N(CC(=O)NC2CCCC2)Cc2ccc3c(c2)OCO3)c1N	10.5%	-1.1	-1.0	-9.7	-1.1%	1.2
44	C/C(=N\Nc1cccc(Cl)c1)c1ccncc1	-12.0%	-7.9	-0.4	-14.7	-13.9%	0.4
45	O=C(c1ccccc1)[C@H]1CC=CC[C@H]1C(=O)O	9.1%	-0.4	3.2	9.7	-12.5%	-5.8
46	CCN(CC)CC(=O)NCC1(c2ccccc2)CCOCC1	18.7%	-3.9	7.0	0.6	-0.7%	5.8
47	COC(C(=O)Nc1cc([N+](=O)[O-])ccc1C)c1ccccc1 (configuration not stated)	-10.1%	-1.5	9.6	-8.2	24.7%	-2.5
48	CC12CCC(=O)N1C(C(=O)Nc1ccccc1N1CCCCC1)CS2 (configuration not stated)	-12.1%	0.6	-7.0	-7.5	0.7%	7.4

Retrieved one by one from above, 4 records:
entry	Molecule	gsp antag	D2 agonist	CtBP-E1A blk	D2 PAM	gsp agonist	Six1-Eya2 blk
28	Cc1ccccc1NC(=S)NC(NC(=O)c1ccccc1C)C(Cl)(Cl)Cl (configuration not stated)	-10.2%	-2.6	7.1	-7.9	-20.9%	-2.1
17	COc1ccccc1N1CCN(C/C(C)=C/c2ccccc2)CC1	-0.5%	-1.6	2.6	-17.7	-14.8%	-3.3
16	CCn1nc(C)c(Br)c1Nc1ccc(Br)cc1	nt	-3.3	0.0	-15.3	19.2%[15.4 µM]	3.3
9	CCc1cccc(C)c1NC(=O)CSc1ncn[nH]1	-16.4%	2.9	-1.3	1.4	11.9%	9.3

(next part)
entry	Molecule	gsp antag	D2 agonist	CtBP-E1A blk	D2 PAM	gsp agonist	Six1-Eya2 blk
49	O=C(NC1CC1)C1CCN(C2CCN(Cc3ccccc3C(F)(F)F)CC2)CC1	14.8%	0.8	-2.0	-9.5	-25.7%	1.9
50	C[C@@H]1CN([C@@H](C)CO)C(=O)c2cccc(NC(=O)Nc3ccc(F)cc3)c2O[C@@H]1CN(C)Cc1ccc(Oc2ccccc2)cc1	-14.0%	-1.1	-29.1	-29.9	nt	-17.6
51	COc1ccc(S(=O)(=O)N2CCCCC2)cc1NC(=O)CCOc1cc(C)ccc1C	-15.5%	5.6	nt	-2.7	-22.6%	-1.6
52	Cn1cccc1/C=N/NC(=O)c1ccn[nH]1	-10.8%	-2.5	-0.3	-2.6	13.4%[15.4 µM]	-1.0
53	O=C(O)CCC(=O)N1CCN(S(=O)(=O)c2ccc3ccccc3c2)CC1	-18.7%	3.8	0.7	-3.6	-2.9%[15.4 µM]	12.9
54	C1=NN(c2ccccc2)C=NN1c1ccccc1	15.1%	-2.1	-1.4	-16.7	-0.2%	-2.1
55	Cc1cc(C(=O)COC(=O)c2nc3nccc(C)n3n2)c(C)n1CC1CCCO1 (configuration not stated)	6.0%	-1.9	2.6	-5.4	-0.8%[15.4 µM]	-1.4
56	O=C(CC1C(=O)NCCN1Cc1ccc(Cl)c(F)c1)NCCc1cccnc1 (configuration not stated)	6.7%	0.5	0.8	-2.9	7.1%[15.4 µM]	0.2
57	O=C(NNC(=O)C(c1ccccc1)c1ccccc1)c1ccccc1O	nt	-3.5	-21.0	-9.6	-83.7%[inhibitor]	41.2
58	O=C(CSc1nnc(-c2ccccc2O)n1-c1ccccc1)Nc1cccc(C(=O)O)c1	6.1%	-1.7	-1.0	3.8	3.6%	-22.1
59	Cc1ccc(NC(=O)c2cnccn2)cc1S(=O)(=O)N(C)C	?	1.5	2.2	-8.6	?	7.2
